Sfp PPTase inh – inhibitors of Bacillus subtilis Sfp phosphopantetheinyl transferase. Potency, µM, for inactives: max response, negative = inhibition, hits mostly inhibitors. 310,000 compounds, 3.5% hits. Biochemical Sfp PPTase activity, qHTS. AID 1490; active = well fitted inhibition curve with a large enough effect; inconclusive = small, poorly fitted or top-dose-only effect, or another doubt; inactive = no such curve, though single readings can be large or run the other way;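 note: the enzyme is Sfp with the accession as filed and its product quenches rhodamine fluorescence; potency is the fitted concentration of half-maximal effect; 0% = enzyme reaction without inhibitor and -100% = no enzyme wells; top concentration of the series not given in the record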
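After 15 min at room temperature with compound, 15 nM Sfp received 5 uM rhodamine-CoA plus 12.5 uM BHQ-2-ybbR (50 mM Hepes pH 7.6, 10 mM MgCl2). Rate came from the fluorescence difference over 30 min, ex 525/em 598 nm.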
ClpP mod – qHTS Assay for Activators of ClpP. ATP-dependent Clp protease proteolytic subunit (Bacillus subtilis (strain 168)), P80244. Potency, µM (top dose mostly 57.5 µM), inactives show at the highest dose activity change, negative = active. purified B. subtilis ClpP, FRET peptide cleavage, 20 min. 340,000 compounds, 1.9% hits; active = well fitted falling curve with a large enough effect; inconclusive = small, poorly fitted or top-dose-only effect; inactive = no such curve, though single readings can be large or run the other way; note: potency is the fitted concentration of half-maximal effect; the source files actives as falling curves though it sought activators and does not explain the sign; nearly all actives have a fitted effect of over 65% in size; many hits overshoot -100%
Target sequence (P80244 whole entry, looked up): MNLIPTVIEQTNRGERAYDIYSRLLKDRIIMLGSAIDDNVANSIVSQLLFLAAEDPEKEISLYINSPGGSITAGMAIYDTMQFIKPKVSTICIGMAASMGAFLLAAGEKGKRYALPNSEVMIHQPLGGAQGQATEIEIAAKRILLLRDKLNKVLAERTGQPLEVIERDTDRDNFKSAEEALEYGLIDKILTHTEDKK
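FRET quenching reversal measured ClpP activation: 10 microg/mL B. subtilis ClpP at pH 8 with the FRET-FV decapeptide, read at 430 nm after 320 nm excitation. The 20-min minus 0-min signal was scaled between DMSO/no-enzyme wells and ADEP (5.8 microM final).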
PINK1 expr mod – changes PINK1 expression; Potency, µM (highest dose often 76.6 µM), inactives show at the highest dose activation (PINK1 increase), actives largely listed as activators; 410,000 compounds, 0.2% hits; PINK1 immunofluorescence, high-content cytometry, 24 h; active = well fitted activation curve with a large enough effect; inconclusive = small, poorly fitted or top-dose-only effect; inactive = flat fitted curve, though single readings scatter; cell line not stated here;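 note: potency is the fitted concentration of half-maximal effect; % of control where 0% means no effect; nearly all actives have a fitted effect of over 65% in size; a mitochondrial uncoupler was the plate control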
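PINK1 protein, normally rapidly degraded, was detected by immunofluorescence after 24 hour compound treatment of a stable cell line. Titration data (5 concentrations) came from laser-scanning cytometry, with CCCP-treated wells as controls.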
gsp agonist – activates gsp, the McCune-Albright syndrome mutation; gsp mutant cells, cAMP HTRF, 30 min; control for the full effect not named in the record; Potency, µM (titrated, usually from 76.9 µM), inactives show at the highest dose activation (cAMP increase), most hits filed as activators; 340,000 compounds, 0.13% hits; active = well fitted activation curve with a large enough effect; inconclusive = small, poorly fitted or top-dose-only effect, or another doubt; inactive = no such curve, though single readings can be large or run the other way; cell line not stated here;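 note: phosphodiesterase inhibitor Ro 20-1724 added with compounds to block cAMP breakdown; potency is the fitted concentration of half-maximal effect; nearly all actives have a fitted effect of over 60% in size; about a fifth of the inactives were tested at one dose only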
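Cells stably selected in G418 were plated at 2000/well, grown 16-24 hr, then given compounds in DMSO with the PDE inhibitor […] (300 uM solution added) for 30 min at 37C; cAMP was read by HTRF.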
gsp antag – antagonizes gsp, the McCune-Albright syndrome mutation. AID 624288. Potency, µM (top dose mostly 76.9 µM), inactives show at the top dose activity change, negative = inhibition, most hits filed as inhibitors. gsp-mutant cells, cAMP HTRF, 30 min; control for the full effect not named in the record. 340,000 compounds, 0.4% hits; active = falling curve of any shape with a large fitted effect; inconclusive = falling curve, mostly with a smaller effect; inactive = flat or rising curve; cell line not stated here;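 note: intracellular cAMP measured with PDE inhibitor Ro 20-1724 present during compound exposure; potency is the fitted concentration of half-maximal effect; % is set by controls: 0 for no effect and ±100 for the full control effect; nearly all actives have a fitted effect of over 65% in size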
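Cells, 2000/well, grown 16–24 h in DMEM 10% FBS with 0.5 mg/ml G418, then compounds plus […] (300 uM addition stock), 30 min at 37C. cAMP read by HTRF (cAMP-d2 and anti-cAMP antibody-K in lysis buffer) after 30 min RT.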
Menin-MLL FL inh – inhibitors of human menin-MLL interaction, wild-type MLL peptide. FP activity change, % at 61.4 µM. 290,000 tested, under 10 active. Fluorescence polarization, fluorescein-MLL peptide displacement from menin; inconclusive = falling polarisation curve, or a change in total fluorescence; inactive = total fluorescence flat and polarisation flat or rising; no compound was filed as active; the % refers to the polarisation; negative = inhibition;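 note: % of control where 0% means no effect; inhibitors lower the polarisation; unlabelled MLL peptide was the positive control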
D2 ag – human D2 receptor agonism in beta-arrestin assay; DiscoveRx PathHunter D2 beta-arrestin, luminescence, 90 min; 100% = 57 uM dopamine signal; 360,000 compounds, 0.084% hits; P14416; activation, % (no concentration beside the values); AID 624465; in the data active = activation above about 40%; inconclusive = about 15% to 40%; inactive = below about 15%; note: compound concentration not given in the record; the text of the record calls up to 30% inactive
Target sequence (P14416 whole entry, looked up): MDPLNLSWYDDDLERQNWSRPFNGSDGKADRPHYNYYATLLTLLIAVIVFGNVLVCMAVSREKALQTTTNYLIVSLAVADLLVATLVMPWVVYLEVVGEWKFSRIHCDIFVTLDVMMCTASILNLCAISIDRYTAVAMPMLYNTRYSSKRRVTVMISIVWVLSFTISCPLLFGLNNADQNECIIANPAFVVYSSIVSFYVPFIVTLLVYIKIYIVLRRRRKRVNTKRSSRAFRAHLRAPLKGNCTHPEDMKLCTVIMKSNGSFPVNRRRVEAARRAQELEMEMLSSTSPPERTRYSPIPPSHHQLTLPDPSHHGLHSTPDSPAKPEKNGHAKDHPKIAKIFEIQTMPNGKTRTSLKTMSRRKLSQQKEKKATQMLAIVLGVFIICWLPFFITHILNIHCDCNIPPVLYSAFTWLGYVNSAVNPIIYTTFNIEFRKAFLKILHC
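Agonist mode: compounds alone added to overnight-plated D2 PathHunter cells for 90 min at 37 C, with 57 uM final dopamine (EC100) defining full response. Beta-arrestin recruitment detected by chemiluminescent reagent, read after 1 h at ambient temperature.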
Starred values were filed as active, the others as inactive; ? = inconclusive; · = not tested or not shown; [ ] = remark or other dose.

SMILES	Sfp PPTase inh	ClpP mod	PINK1 expr mod	gsp agonist	gsp antag	Menin-MLL FL inh	D2 ag
CCCCC(c1nnnn1CS(=O)(=O)c1ccc(C)cc1)N1CCN(C)CC1 (stereo unspecified)	-22%	·	-0.9%	7%[15.4 µM]	6%	-7.5	-2.2
O=C(Nc1nccs1)c1ccc(COc2ccc(F)cc2)o1	14%	-3.9%	28%[38.3 µM]	2%	-6%	2.4	-1.2
Nn1c(SCC(=O)NC2CCCCCC2)nnc1C(F)(F)F	·	·	0.0%	7%	9%	·	2.8
CCOC(=O)c1c(C)[nH]c(C)c1C(=O)COC(=O)c1cccc(S(=O)(=O)N(CC)CC)c1	10%	-0.9%	-2.3%	29%	-6%	0.4	-1.3
Cc1cc(NC(=O)Nc2ccc(Cl)cc2)n(-c2ccccc2)n1	13%	0.4%	0.8%	6%[15.4 µM]	-17%	0.5	-2.1
CCCCNC(=O)c1ccc2c(=O)n(CCCOCC)c(=S)[nH]c2c1	0%	-5.8%	·	-37%[inhibitor]	11%	-2.3	0.9
CCn1nc(C)c(CNC(=O)CCc2nnc(-c3ccc(C(C)=O)s3)o2)c1C	-10%	·	-1.1%	-17%	2%	-2.5	1.1
COc1ccc(CNC(=O)COC(=O)CCOc2ccc(C)cc2)cc1	·	-2.0%	1.2%	0%	-1%	·	-3.4
Cc1cc2oc(=O)cc(CN(C)Cc3ccccc3Cl)c2cc1C	-12%	·	5.2%	26%	-10%	·	5.4
Cc1cc(C)cc(N(C(=O)c2csnn2)C(C(=O)NC2CCCC2)c2cccnc2)c1 (stereo unspecified)	-1%	1.2%	2.9%	-15%[15.4 µM]	0%	3.7	-4.0
N#CCc1nc2n(n1)Cc1ccccc1-2	7%	-1.6%	·	?	0%	-3.7	-1.0
Cc1cc(C(F)(F)F)nc(CCNCc2c(C(=O)N3CCCC3)nc3ccccn23)n1	4%	·	3.7%	-9%	4%	6.2	-6.3
CC(C)c1c(O)nc(SCCOc2ccc(Cl)cc2)[nH]c1=O	18%	·	0.1%	6%[15.4 µM]	-10%	3.6	3.2
CN(C)C(CNC(=O)c1cc(-c2ccco2)nc2ccccc12)c1ccccc1 (stereo unspecified)	·	·	-1.8%	17%	-2%	·	-5.3
O=C(Nc1ccc(F)cc1F)c1cc2nc3c(c(C(F)(F)F)n2n1)CCCC3	3%	0.9%	1.2%	-45%[inhibitor]	-41%	4.2	-1.5
COCCNc1ccc(-c2n[nH]c(=O)c3ccccc23)cc1[N+](=O)[O-]	-6%	1.0%	-0.4%	-49%[inhibitor]	15%	-3.4	0.0
Cc1ccc(C(C)NC(=S)NCc2ccc(F)cc2)cc1C (stereo unspecified)	-2%	0.9%	?	-33%[inhibitor]	-10%	-4.1	-0.8
Cn1cc(C(=O)c2cccc(Cl)c2)cc1C#N	23%	·	0.5%	2%	4%	-6.0	-0.2
O=S(=O)(Nc1cc(S(=O)(=O)N2CCOCC2)ccc1N1CCOCC1)c1ccc2c(c1)OCCO2	2%	-2.4%	0.4%	?	-2%	1.3	-1.4
COc1ccc(/C=C(\C#N)C(=O)c2cccn2C)cc1	-5%	1.3%	3.2%	-1%	-2%	11	-0.5
O=C(NCCSSCCNC(=O)c1ccccc1)c1ccccc1	·	-2.4%	8.5%	2%	-13%	·	-4.6
CCN1CCN(c2ncnc3c2cnn3-c2ccccc2)CC1	22%	-23%	-0.4%	-57%[inhibitor]	5%	0.7	-1.2
O=C(CCCN1C(=O)S/C(=C\c2ccccc2)C1=O)NNC(=O)c1ccccc1O	20%	·	2.6%	0%[15.4 µM]	-25%	0.4	2.4
COc1cc2c(cc1OC)C(C(C(=O)N(CCc1ccc(OC)c(OC)c1OC)CCc1ccc(OC)c(OC)c1OC)c1ccccc1)=NCC2 (stereo unspecified)	10%	-24%	2.4%	·	·	0.1	·
CC(=O)Nc1cccc(-c2nn[nH]n2)c1	10%	·	1.9%	-1%[15.4 µM]	14%	1.5	-2.8
CN(C)c1ccc(N/C=C/C(=O)c2ccco2)cc1	56µM*	1.4%	0.0%	3%	-29%	?	7.9
O=C(NNC(=S)Nc1ccc(Cl)cc1Cl)c1ccncc1	3%	0.0%	0.7%	-18%	-4%	2.0	-2.4
O=C(Cc1ccc(S(=O)(=O)N2CCOCC2)s1)Nc1ccccc1N1CCOCC1	2%	14µM*	1.7%	1%[15.4 µM]	-7%	1.0	-3.9
CC(C)COCC(O)CC(Cc1ccccc1)C(=O)NN (stereo unspecified)	6%	·	0.9%	8%[15.4 µM]	7%	5.7	-6.5
O=[N+]([O-])c1cc(S(=O)(=O)N2CCOCC2)ccc1N1CCNCC1	·	-0.8%	-1.0%	22%[15.4 µM]	-6%	·	-2.4
CC(=O)c1ccc(S(=O)(=O)NC2CCSc3ccccc32)cc1 (stereo unspecified)	6%	-0.4%	3.8%	-9%[15.4 µM]	5%	-0.7	-3.7
COc1cc([N+](=O)[O-])ccc1NC(=O)Nc1ccc2c(c1)OCCO2	?	·	4.3%	7%[15.4 µM]	-32%	-0.9	-15
CCCc1nc2ccccc2c(C(=O)OCC(=O)c2ccc3c(c2)NC(=O)CO3)c1CC	14%	-2.7%	·	-6%	3%	3.3	0.9
CC(C)(C)S(=O)N1Cc2cc(C(=O)NCc3ccc4c(c3)OCO4)nc(-c3cccc(-c4ccncc4)c3)c2[C@H]1CCO (stereo partly specified)	·	-1.1%	-0.4%	·	·	·	1.5
O=C(CSc1nccc(=O)[nH]1)N1CCN(c2ccccc2)CC1	-16%	·	-0.4%	-3%[15.4 µM]	-13%	1.1	-1.8
CNCCNC[C@H](Cc1cccc2ccccc12)NCCc1ccccc1	·	-0.4%	-0.4%	·	10%	·	0.0
Cc1cc(C)c2[nH]c(C(=O)N3CCC(n4nccc4NC(=O)C4CC4)CC3)c(C)c2c1	14%	-0.9%	1.5%	17%	-15%	·	-1.5
COc1ccc(OC)c2c1CC(C)(C)NC2=O	4%	3.7%	-1.6%	0%	-7%	0.6	-1.6
CCOc1ccc(NC(=O)N[C@@H](Cc2ccccc2)C(=O)O)cc1	9%	·	-0.5%	33%[15.4 µM]	4%	1.3	-0.6
O=C(COC(=O)c1cc(S(=O)(=O)N2CCOCC2)ccc1Cl)Nc1ccc2c(c1)OCO2	6%	1.3%	-2.8%	-3%	-27%	4.7	-2.4

Arranged by SMILES length (rising): ten of the compounds above.
SMILES	Sfp PPTase inh	ClpP mod	PINK1 expr mod	gsp agonist	gsp antag	Menin-MLL FL inh	D2 ag
CC(=O)Nc1cccc(-c2nn[nH]n2)c1	10%	·	1.9%	-1%[15.4 µM]	14%	1.5	-2.8
CC(C)COCC(O)CC(Cc1ccccc1)C(=O)NN (stereo unspecified)	6%	·	0.9%	8%[15.4 µM]	7%	5.7	-6.5
CCN1CCN(c2ncnc3c2cnn3-c2ccccc2)CC1	22%	-23%	-0.4%	-57%[inhibitor]	5%	0.7	-1.2
O=C(CSc1nccc(=O)[nH]1)N1CCN(c2ccccc2)CC1	-16%	·	-0.4%	-3%[15.4 µM]	-13%	1.1	-1.8
CCOc1ccc(NC(=O)N[C@@H](Cc2ccccc2)C(=O)O)cc1	9%	·	-0.5%	33%[15.4 µM]	4%	1.3	-0.6
COc1cc([N+](=O)[O-])ccc1NC(=O)Nc1ccc2c(c1)OCCO2	?	·	4.3%	7%[15.4 µM]	-32%	-0.9	-15
O=C(CCCN1C(=O)S/C(=C\c2ccccc2)C1=O)NNC(=O)c1ccccc1O	20%	·	2.6%	0%[15.4 µM]	-25%	0.4	2.4
CCCc1nc2ccccc2c(C(=O)OCC(=O)c2ccc3c(c2)NC(=O)CO3)c1CC	14%	-2.7%	·	-6%	3%	3.3	0.9
Cc1cc(C)c2[nH]c(C(=O)N3CCC(n4nccc4NC(=O)C4CC4)CC3)c(C)c2c1	14%	-0.9%	1.5%	17%	-15%	·	-1.5
COc1cc2c(cc1OC)C(C(C(=O)N(CCc1ccc(OC)c(OC)c1OC)CCc1ccc(OC)c(OC)c1OC)c1ccccc1)=NCC2 (stereo unspecified)	10%	-24%	2.4%	·	·	0.1	·

Following part:
SMILES	Sfp PPTase inh	ClpP mod	PINK1 expr mod	gsp agonist	gsp antag	Menin-MLL FL inh	D2 ag
O=C(COCc1cc(-c2ccco2)on1)NC1CCCCC1	2%	-0.2%	2.7%	-8%	3%	·	?
CC(NS(=O)(=O)c1ccc(CCC(=O)NCc2ccco2)cc1)c1ccccc1 (stereo unspecified)	12%	4.3%	?	20%	9%	7.6	0.4
Cc1ccnc(NCc2cccc3ccccc23)c1	-3%	0.7%	4.7%	-30%[inhibitor]	-15%	1.2	-3.5
CC(c1ccccc1)N(CC(=O)NC1CCCCC1)S(=O)(=O)c1cccc(C(F)(F)F)c1 (stereo unspecified)	12%	-0.5%	25%	18%[15.4 µM]	-20%	4.5	-2.1
Cc1ccc(C(=O)OC(C)C(=O)NC2CCCCC2)cc1S(=O)(=O)N1CCCCC1 (stereo unspecified)	·	-1.0%	1.8%	4%	0%	·	0.0
CCn1cc(C2=NOC(C(=O)Nc3ccccc3C(=O)OC)C2)c(C)n1 (stereo unspecified)	4%	2.5%	9.6%	-89%	13%	0.4	-0.6
O=C(N/N=C/c1ccc(O)c([N+](=O)[O-])c1)c1ccncc1	?	-2.4%	0.1%	-1%	-9%	2.6	-9.3

Assay outcomes as filed in PubChem.
